Sa ugtP lethal: kills S. aureus RN4220 lacking UgtP; S. aureus RN4220 ugtP deletion, OD600 growth, 16 h; some inactives read as strong as hits; AID 1259309; 330,000 tested, 0.54% active; growth inhibition, % (no concentration beside the values);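 active means z-score under -3 and OD600 up to 0.15 on both plates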;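 further: plate controls were untreated wells for no effect and antibiotic for full effect; wells of about 80 µL received 100 nL stock; the first replicate is given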
PrP 5UTR inh: inhibition of PrP 5' UTR reporter expression; cell-based PrP 5' UTR mRNA reporter, plate reader; inhibition, % (test concentration not listed); 340,000 tested, 0.35% active; AID 488862;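 active means every replicate at 50% or more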;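 further: 0 = median of the neutral control wells; tested in H4 reporter cells; numbers are from one replicate; inactives centre near -14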
RN4220 kill: kills Staphylococcus aureus RN4220; S. aureus RN4220 growth, OD600, 16 h; inhibition, % (no concentration beside the values); 330,000 tested, 0.33% active; AID 1259311;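 active means z-score of -3 or lower and OD600 up to 0.18 on both plates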;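 further: plate controls were untreated cells for no effect and reference antibiotic for full effect; stock transfer was 100 nL into about 80 µL; one replicate is shown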
BJeLR lethal: BJeLR cell viability loss; BJeLR (HRASV12) viability, CellTiter-Glo ATP luminescence, 48 h; reference of the scale not given here; inhibition, % (no concentration beside the values); 300,000 tested, 0.17% active; AID 1554;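 active means replicate mean above 50%; inconclusive means above 50% but judged a plate artefact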;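 further: 50 nL library stock added to about 25 µL; numbers are from one replicate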
Mtb hypoxia rep: inhibitors of hypoxia-regulated fluorescent reporter in Mycobacterium tuberculosis; M. tuberculosis hypoxia-regulated fluorescent reporter, fluorescence; fluorescence inhibition, % (concentration not given with the values); 300,000 tested, 0.1% active; AID 1159583;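 active means 35 to 45% if threefold the growth effect, above 45% if 1.5-fold the growth effect; inactive means the rest, general growth blockers included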;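 further: wells of about 50 µL received 100 nL stock; 0% = vehicle wells and 100% = reference inhibitor wells; whole bacteria with a GFP reporter of the hypoxia response; strong numbers were not always called active; many hits fall short of the cut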
Autofluor counter: compound fluorescence in toxin protease inhibitor counterscreen; compound autofluorescence counterscreen, microsphere flow cytometry; stronger effect = higher value; fluorescence intensity (concentration not given with the values); 360,000 tested, 3.1% active; AID 624483;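 active means at least 3 SD above the mean of all compounds, about 16000 in these data; inconclusive means too few beads counted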;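 further: 100 nL of 1 mM stock went into each well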
Mtb hypoxia rep growth: also measured in Mtb hypoxia rep; calls as there; growth inhibition, %; measured here: M. tuberculosis growth (absorbance);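 0% = vehicle and 100% = reference antibiotic; read after six days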
* hit, by the source's call; u = inconclusive; x = not tested or not shown.

SMILES	Sa ugtP lethal	PrP 5UTR inh	RN4220 kill	BJeLR lethal	Mtb hypoxia rep	Mtb hypoxia rep growth	Autofluor counter
CCCC[C@@H]1CNCCN1CCc1cc(C(F)(F)F)cc(C(F)(F)F)c1	x	-6	x	-5	x	x	4124
COC(=O)[C@]1(C)N[C@H](CN(C)C(=O)c2ccccc2)[C@@H]2C(=O)N(Cc3ccccc3)C(=O)[C@@H]21	4	-22	-0.2	x	2	-3	3778
O=C(N/N=C/c1cccnc1)C1CC1(c1ccccc1)c1ccccc1 (configuration not stated)	x	-11	x	1	x	x	3566
COc1ccc(OCC(=O)Nc2ccc(Cl)cc2)cc1	11	-25	11	0	1	0	4909
CC(Oc1ccc(F)cc1)C(=O)Nc1ccc(S(=O)(=O)NC2=NCCCCC2)cc1 (configuration not stated)	-2	-7	-5.6	x	-5	2	2749
Cc1ccc(/C=C/C(=O)O)cc1S(=O)(=O)NCc1ccco1	3	-34	4.6	-5	6	0	4740
CC(=O)Nc1ccc(S(=O)(=O)C(C#N)c2nc3ccccc3nc2NCCCO)cc1 (configuration not stated)	-1	-20	5.1	0	12	5	3438
C=C(C)n1c(=O)[nH]c2ccccc21	10	-24	1.2	1	x	x	3474
CCOC(=O)Cn1c(=O)oc2cc(S(=O)(=O)NC3CCCCC3)ccc21	-1	-16	-7.1	-6	11	10	6273
CCc1nnc(NC(=O)CSc2ncnc3c2cnn3-c2ccc(OC)cc2)s1	3	-66	2.7	8	-6	2	10885
O=c1c2c(-c3cccs3)csc2ncn1N=Cc1ccccn1	-2	x	0.6	x	-7	2	x
CCCCCC(=O)N(O)C1CC(=O)N(c2ccccc2)C1=O (configuration not stated)	x	-28	x	-2	x	x	3107
C=CCC1(N(C(C)=O)c2ccccc2C)CCCCC1	x	-25	x	-3	x	x	5032
OC(CNC1CCCCC1)CNC1CCCCC1	10	-20	2.7	9	13	-11	4687
CCCOC(=O)c1c(NC(=O)CCC(=O)O)sc2c1CCCCC2	2	-13	3.6	-3	6	17	2094
CCCC1NC(C(=O)O)Cc2c1[nH]c1ccccc21 (configuration not stated)	10	-30	5.9	4	3	1	4458
Cn1c(=O)cc(OCC(=O)NCCc2ccc(Cl)cc2)c2ccccc21	6	-26	4.5	-8	2	8	2280
CSc1nc2ccc(NC(=O)C3CCCO3)cc2s1 (configuration not stated)	0	-54	-0.7	-35	x	x	4738
CCOc1ccc(NC(=O)CCC(=O)NNC(=O)COc2ccccc2C)cc1	-3	-15	-0.1	-1	-4	8	4338
COc1ccc(O)c(C(C)(C)C)c1	-7	-14	1.4	7	-4	-2	5659
COc1cc(NC(=O)CCN2CCN(c3ccccc3F)CC2)cc(OC)c1	-6	-18	-3.3	11	-8	-4	7833
O=C1NCCCC1=NNc1ccc(Br)cc1	0	x	5.9	x	-12	-10	x
CNC(=O)CN(c1cc(OCCOC)c(Cl)cc1Cl)S(=O)(=O)c1ccc(OC)cc1	11	-41	5.7	17	-4	7	4104
O=C(/C=C/c1ccc(Cl)cc1)NCCc1ccccc1	8	-20	-4.0	-11	7	11	2512
O=S(=O)(Nc1ccc(O)c(Sc2nc3ccccc3s2)c1)c1ccc(F)cc1	-4	-32	5.1	-2	-4	-1	2127

Shown with each value named: two of the compounds above
CCOc1ccc(NC(=O)CCC(=O)NNC(=O)COc2ccccc2C)cc1
  Sa ugtP lethal: -3 | PrP 5UTR inh: -15 | RN4220 kill: -0.1 | BJeLR lethal: -1 | Mtb hypoxia rep: -4 | Mtb hypoxia rep growth: 8 | Autofluor counter: 4338
COc1ccc(O)c(C(C)(C)C)c1
  Sa ugtP lethal: -7 | PrP 5UTR inh: -14 | RN4220 kill: 1.4 | BJeLR lethal: 7 | Mtb hypoxia rep: -4 | Mtb hypoxia rep growth: -2 | Autofluor counter: 5659

Next part.
SMILES	Sa ugtP lethal	PrP 5UTR inh	RN4220 kill	BJeLR lethal	Mtb hypoxia rep	Mtb hypoxia rep growth	Autofluor counter
Cn1c(=O)n(C)c2cc(C(N)=O)ccc21	10	-35	2.9	4	16	6	13112
CC(C)N1C(=O)CCC1C(=O)NCCc1ccccc1 (configuration not stated)	-3	-20	5.1	1	5	4	23958*
Cc1ccc(CNn2cnnc2SCC(=O)NC(C)(C)C)cc1	-9	-21	6.8	-6	14	11	8814
CC(=O)Oc1ccc2c(C)cc(=O)oc2c1C(=O)c1ccccc1	7	-10	5.3	-1	4	5	2852
NC(=S)n1[nH]c(-c2ccc([N+](=O)[O-])cc2)c(N=Nc2ccc(Cl)cc2)c1=O	-11	-21	5.6	x	8	5	4917
O=C(O/N=C1\CCS(=O)(=O)c2sccc21)c1ccc(F)cc1	x	-15	x	-9	x	x	3563
O=C(O)C1C2CCC(O2)C1C(=O)Nc1ccc(F)cc1 (configuration not stated)	3	-24	1.5	1	13	9	3368
CNCCC=C1c2ccccc2C=Cc2ccccc21	-4	-15	4.4	x	13	7	5747
CCc1nnc(NC(=O)c2ccc(Br)o2)s1	6	-22	8.6	7	15	1	4476
Cc1cccc(C(=O)NNC2=C(C(=O)C(F)(F)F)CCC2)c1O	98*	-19	99*	8	2	12	2903
Cc1cc(NCc2ccccc2)n2ncc(-c3ccccc3)c2n1	50	-87	-2.6	-8	11	6	3734
O=C(c1ccccc1)c1ccc(O)cc1O	-7	-25	4.3	14	-7	12	4936
CN(C)S(=O)(=O)c1cc(NC(=O)COC(=O)/C=C/c2ccco2)ccc1Cl	-1	7	0.7	-5	4	-3	3316
CC1CC(NC(=O)/C=C/C(=O)O)CC(C)(C)C1 (configuration not stated)	3	-20	3.6	-9	8	6	4652
O=C(O)c1ccc(N/C(=N\S(=O)(=O)c2ccc(Cl)cc2)c2ccccc2)cc1	x	-13	x	7	x	x	3527
CCOC(=O)c1ccc(CSc2nnc(-c3ccncc3)n2N)cc1	4	-34	2.1	9	x	x	2122
CCCCCC(=O)N/N=C/c1cccs1	x	-8	x	-5	x	x	22461*
Cn1c(=O)n(CCc2ccccc2)c(=O)c2c1nc1n2CCCN1CCc1ccccc1	4	9	-8.9	3	x	x	3586
CN(C)NC(=S)Nc1cccc(Cl)c1	6	-23	1.6	7	13	1	u
Cc1cccc(CSc2ccc3nnc(-c4ccccn4)n3n2)c1	8	-14	4.9	-2	-9	-2	3925
O=C1OCc2ccc(NC(=O)C3CC3)cc21	-4	-21	-6.7	19	-3	-14	3200
O=C(C#Cc1ccccc1)c1ccco1	x	-10	x	24	x	x	5935
CC(=O)C1CCN(Cc2ccccc2)CC1	5	6	4.2	-1	x	x	2327
CCOC(=O)c1ccccc1NC(=O)COC(=O)C(CC(C)C)NC(N)=O (configuration not stated)	3	-26	-0.7	7	8	9	4385
COc1ccc(NC(=O)c2ccccc2NC(=O)CSc2ccc(C)cc2)cc1	6	-33	1.1	-2	15	5	8586
Remaining list, next part.
SMILES	Sa ugtP lethal	PrP 5UTR inh	RN4220 kill	BJeLR lethal	Mtb hypoxia rep	Mtb hypoxia rep growth	Autofluor counter
CCOc1ccc(N(CC(=O)NC2CCCC2)C(=O)CCC(=O)Nc2nc(C)cs2)cc1	6	-17	-1.0	-1	4	1	3465
CC(C)C(OC(=O)c1cc2c(s1)CCCCC2)C(=O)NC(N)=O (configuration not stated)	-1	-18	1.7	-9	-4	0	3852
CCSc1nnc(NC(=O)CSc2nncc(=O)n2N)s1	4	-15	1.9	-2	2	4	3282
O=C(CN1CCN(C(=O)c2ccco2)CC1)Nc1ccc(Br)cc1	17	-5	-2.4	-7	0	9	3661
O=C(CCCc1nc(-c2ccc(Cl)cc2)no1)NC1CCCCC1	5	-15	5.7	-8	3	-7	5031
COC(=O)c1ccc(/C=N/OCC(=O)NCCc2ccc(OC)c(OC)c2)cc1	x	-73	x	8	x	x	4340
O=C(O)c1cccc(NC(=S)N/N=C/c2c[nH]c3ccccc23)c1	x	-11	x	5	x	x	2239
COc1ccc(Cl)cc1-c1nc(SCC(=O)NC2CCS(=O)(=O)C2)n[nH]1 (configuration not stated)	5	-9	6.6	x	17	9	3765
CCNC(=O)Nc1cc(S(=O)(=O)Nc2ccc(OC)cc2)ccc1N1CCOCC1	10	-15	4.1	x	2	10	3916
O=C(NCCC(=O)N1CCCC1)c1ccccc1Cl	12	-22	2.6	-12	15	3	6148
COc1ccccc1Cc1nc(-c2ccc(C)cc2)no1	37	-13	-1.9	-6	-6	4	8714
Cc1ccc(C(=O)Cn2cnc3ccccc3c2=O)cc1	-3	-46	2.9	x	x	x	4417
CC(=O)Nc1cccc(-c2csc(Nc3ccc(Cl)cn3)n2)c1	25	-100	32	4	6	-3	4246
FC(F)(F)c1ccc(Cl)c(N/N=C/c2ccc(N3CCOCC3)s2)c1	x	-18	x	-10	x	x	2465
N#Cc1ccc(S(=O)(=O)NCCc2ccncc2)cc1	-2	4	0.9	x	-2	10	4051
COc1cc(C2CC(=O)Nc3n[nH]c(-c4ccccc4)c32)cc(OC)c1OC (configuration not stated)	7	x	2.4	34	-8	6	x
CC1=CC(=O)C2=C(C)CCC3C(C)C(=O)OC3C12 (configuration not stated)	1	x	3.4	x	3	-12	5342
O=C(CN1C(=O)NC2(CCCC2)C1=O)OCc1cccc(Br)c1	-2	-9	0.3	x	5	8	7843
CCOC(=O)c1ccc(N2C(=O)CC(Nc3ccc(CCO)cc3)C2=O)cc1 (configuration not stated)	-4	-12	1.1	9	2	21	9748
CC1CCN(C(=O)c2[nH]cnc2C(=O)NC(C)c2ccccc2)CC1 (configuration not stated)	4	x	6.5	x	1	1	x
O=c1c2ccccc2nc(/C=C/c2ccc(F)cc2)n1-c1ccccc1O	98*	-7	97*	6	12	16	3316
C=C(C)Cn1c(C(C)NC(=O)CCC)nc2ccccc21 (configuration not stated)	0	-4	1.9	-6	-3	3	9347
CCOc1ccc(C(=O)CCC(=O)NNC(=O)CCN2CCN(c3ccccc3)CC2)cc1	1	-3	4.6	x	6	1	3495
O=C(N/N=C/c1ccncc1)c1cccc(NC(=O)c2ccc(Cl)cc2)c1	x	-23	x	-1	x	x	2630
O=C(N/N=C/c1ccc(Sc2nc3ccccc3s2)c([N+](=O)[O-])c1)c1ccccn1	x	-2	x	-10	x	x	7345
Going on with the list:
SMILES	Sa ugtP lethal	PrP 5UTR inh	RN4220 kill	BJeLR lethal	Mtb hypoxia rep	Mtb hypoxia rep growth	Autofluor counter
N=C1C(c2ccc(Br)cc2)=C(O)C2CCc3ccccc3N12 (configuration not stated)	-2	-23	8.8	x	13	9	5269
NC(=O)N/N=C/c1ccc(OCc2cccc(Cl)c2)cc1	x	-19	x	4	x	x	4064
NC(=O)C(=O)N/N=C1\CCc2ccccc21	x	-65	x	-5	x	x	3307
Cc1occc1C(=O)N1CCN(c2ccc([N+](=O)[O-])cc2)CC1	4	-2	-0.3	-4	8	-2	4817
O=C(NCc1ccccc1Cl)c1ccc(S(=O)(=O)NCc2ccco2)cc1	5	-3	2.8	x	10	-5	6381
COc1ccc(C(=O)Nc2cccc3c2CCCC3)c(OC)c1	2	x	7.4	4	12	4	x
CN(CC(=O)Nc1ccc(F)c(F)c1F)C(=O)C1CCCC1	7	-32	5.8	x	9	9	8986

Compounds shown so far containing fluorine (ten):
SMILES	Sa ugtP lethal	PrP 5UTR inh	RN4220 kill	BJeLR lethal	Mtb hypoxia rep	Mtb hypoxia rep growth	Autofluor counter
CCCC[C@@H]1CNCCN1CCc1cc(C(F)(F)F)cc(C(F)(F)F)c1	x	-6	x	-5	x	x	4124
CC(Oc1ccc(F)cc1)C(=O)Nc1ccc(S(=O)(=O)NC2=NCCCCC2)cc1 (configuration not stated)	-2	-7	-5.6	x	-5	2	2749
COc1cc(NC(=O)CCN2CCN(c3ccccc3F)CC2)cc(OC)c1	-6	-18	-3.3	11	-8	-4	7833
O=S(=O)(Nc1ccc(O)c(Sc2nc3ccccc3s2)c1)c1ccc(F)cc1	-4	-32	5.1	-2	-4	-1	2127
O=C(O/N=C1\CCS(=O)(=O)c2sccc21)c1ccc(F)cc1	x	-15	x	-9	x	x	3563
O=C(O)C1C2CCC(O2)C1C(=O)Nc1ccc(F)cc1 (configuration not stated)	3	-24	1.5	1	13	9	3368
Cc1cccc(C(=O)NNC2=C(C(=O)C(F)(F)F)CCC2)c1O	98*	-19	99*	8	2	12	2903
FC(F)(F)c1ccc(Cl)c(N/N=C/c2ccc(N3CCOCC3)s2)c1	x	-18	x	-10	x	x	2465
O=c1c2ccccc2nc(/C=C/c2ccc(F)cc2)n1-c1ccccc1O	98*	-7	97*	6	12	16	3316
CN(CC(=O)Nc1ccc(F)c(F)c1F)C(=O)C1CCCC1	7	-32	5.8	x	9	9	8986
